# CapD inh = Bacillus anthracis CapD inhibitors, primary screen, biochemical, fluorescence intensity; CapD gamma-glutamyltranspeptidase (Bacillus anthracis Ames Ancestor); purified CapD enzyme, fluorescence intensity read-out; hits give low values; some hits fall short of the stated cut; z-score (test concentration not listed); 140,000 tested, 0.23% active;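 active = z-score under -4 in either of two replicates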;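 also: stock transfer was 100 nL into about 40 µL; score is relative to mean and spread of the plate; one replicate is shown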
# AID504770 = growth inhibition of E. coli YBA685, primary screen, V. cholerae RctB inhibitors | z-score (no concentration beside the values) | E. coli YBA685 rctB-dependent plasmid, OD600 growth, 3 h; hits give low values | 130,000 tested, 0.27% active;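 active = z-score under -2 on both plates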;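 also: wells of about 30 µL received 100 nL stock; score is relative to mean and SD of the test wells; the first replicate is given; strong numbers were not always called active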
# The depositor's hits bear a star; nt = no result given.
SMILES,CapD inh,AID504770
O=C(c1cc2sccc2n1Cc1ccccc1)N(Cc1ccco1)Cc1cccs1,nt,0.4
CC(=O)C1=C(C)NC(=O)C1CC(=O)O (centres undefined),0.02,nt
Cc1nc2ccccc2c(=O)n1-c1ccc(Br)cc1,0.21,-0.8
COc1ccc(OC)c(CNS(=O)(=O)c2cc(C(F)(F)F)cc(C(F)(F)F)c2)c1,-0.305,nt
N#Cc1ccc(-c2cccc(C(F)(F)F)c2)nc1Oc1ccc(F)cc1,-0.03,nt
Cn1c(=O)n(C)c2cc(CO)ccc21,0.295,-0.15
COC(=O)C(C)NC(=O)C12CC3CC(CC(C3)C1)C2 (centres undefined),-0.125,-0.15
O=C(NCc1nc(-c2ccccc2)no1)Nc1ccccc1,0.925,0.7
C=CCSc1nnc(-c2cccn(Cc3ccc(Cl)cc3Cl)c2=O)o1,100,nt
O=C(/C=C/c1ccco1)Nc1ccc(C(F)(F)F)cc1,0.075,0.3
CCCc1nc2c(o1)CC(C)(C)CC2=O,-0.075,-0.4
CC1=C(CC(=O)c2sccc2Br)C(=O)c2ccccc2C1=O,-0.11,nt
CC(C)N(C(=O)c1cc2sccc2n1Cc1ccc(F)cc1)C(C)C,nt,0.15
c1ccc(Oc2nc(NCCN3CCOCC3)nc(Oc3ccccc3)n2)cc1,-0.755,nt
O=c1[nH]c2ccc(Cl)cc2c(-c2ccccc2)c1SC(=S)N1CCOCC1,-0.85,1.4
CC1CC(O)(Cc2ccccc2)C(C)CN1C (centres undefined),-0.495,-0.65
COc1nc(-c2ccccc2)ccc1-c1noc(-c2cccs2)n1,16,-0.2
CC(=O)Nc1ccccc1OCc1cc(=O)n2nc(C)sc2n1,0.865,-0.95
CS(=O)(=O)N1CCN(C2CCCCC2)CC1,nt,2.1
CCN(CCO)C(=S)Nc1cc(C(=O)OC)ccc1C(=O)OC,1.98,0

# Profiles, looked up by structure:
# Entry for CCN(CCO)C(=S)Nc1cc(C(=O)OC)ccc1C(=O)OC : CapD inh = 1.98; AID504770 = 0
# Entry for O=C(/C=C/c1ccco1)Nc1ccc(C(F)(F)F)cc1 : CapD inh = 0.075; AID504770 = 0.3

# Other compounds:
SMILES,CapD inh,AID504770
COC(=O)C(C)Sc1ncnc2c1sc1nc(N3CCOCC3)c3c(c12)CCCC3 (centres undefined),0.615,0.8
COCCNC(=O)c1ccc2c(=O)n(Cc3ccc4c(c3)OCO4)c(SCC(=O)Nc3ccc(C)c(C)c3)nc2c1,-1,nt
CC(C)CNC(=O)CSc1ccc2c(c1)OCCO2,nt,3.05
CCSc1ccc(C#N)cn1,-0.38,nt
CCOC(=O)C1=C(CNC(C)C)NC(=O)NC1c1ccccc1 (centres undefined),0.3,-0.45
COc1cc(-c2nc3ccccc3c(=O)n2NC(=O)/C=C/c2ccc([N+](=O)[O-])cc2)cc(OC)c1OC,-0.62,nt
Cc1nnc(NC(=O)CSc2nc3c([nH]c4ccccc43)c(=O)n2-c2ccc(F)cc2)s1,0.905,1.45
CCc1ccc2[nH]c(=O)c(CN(Cc3ccco3)C(=O)Nc3ccccc3)cc2c1,nt,0.05
C/[N+]([O-])=C\c1ccc(-c2ccccc2)cc1,nt,-0.45
O=C(COc1cc(Cl)c(Cl)cc1Cl)NCCN1C(=O)CSC1=O,nt,1.6
COc1ccc(N2C(=O)CCC(C(=O)NCC3CCCO3)C2c2ccc(F)cc2)cc1 (centres undefined),-0.25,nt
S=C1N(CN2CCCCC2)CCN1CN1CCCCC1,0.31,-1.15
O=C(NCCS(=O)(=O)N1CCCC1)c1ccc2c(c1)OCO2,nt,-1.1
Cc1ccc(C)c(Cn2ncc3ccccc32)c1,-1.14,0.25
CN(C(=O)CSc1nc2c(c(=O)[nH]1)CCC2)C1CCCCC1,-0.085,0.8
COc1cccc(OC)c1CN1CCC(N(CCc2ccccc2)C(=O)Nc2ccc(F)cc2F)CC1,0.195,nt
CC(C)(CNC(=O)c1cccc(S(=O)(=O)N2CCOCC2)c1)N1CCOCC1,nt,-0.9
CC(=O)OCCCc1nc2ccccc2n1C(C)=O,-0.735,-0.25
CCC(Sc1nnnn1-c1ccccc1)C(=O)N1c2ccccc2Sc2ccccc21 (centres undefined),4.18,1.9
CCOC(=O)Nc1ccc(Br)cc1C(NCC(=O)OC)c1ccccc1 (centres undefined),-0.68,-1.05
CC(C#N)Sc1nnc(-c2cccc(S(=O)(=O)Nc3ccccc3Cl)c2)n1-c1ccccc1 (centres undefined),nt,-0.9
CCCN1C2CCCC1CC(NC(=O)c1cc(OC)c(OC)c(OC)c1)C2 (centres undefined),nt,-0.45
CSc1c(C#N)c(N)c(C#N)c2c1COC(C)(C)C2,91.8,-0.25
CCNc1ccc(S(=O)(=O)C(F)(F)F)cc1NC(=O)Cc1ccccc1,nt,-0.5
Cc1ccc(/C=C/C(=O)NCC2CCCO2)o1 (centres undefined),-1.39,-0.7
Cc1cc(NC(=O)c2cc(=O)c3ccccc3o2)n(-c2ccccc2C)n1,-1.07,-0.4
CCCCN1C(=O)/C(=C2/C(=O)N(C)c3ccccc32)SC1=S,0.04,-0.6
CSc1ncc(Cl)c(C(=O)Nc2cc(C)ccc2C)n1,1.09,-0.6
O=C1NC(=O)C(=Cc2cc(Br)ccc2OCc2ccccc2)C(=O)N1,-0.51,nt
OC(CNCCc1ccc(F)cc1)c1ccccc1 (centres undefined),nt,0.1
CN(C(=O)COC(=O)c1ccc2c(c1)OCCO2)c1ccccc1,nt,-1.25
CCC(Sc1nc2cc3c(cc2c(=O)n1Cc1ccco1)OCO3)C(=O)Nc1ccccc1OC (centres undefined),2.81,-0.35
O=C(NCc1ccccc1)c1ccc2c(=O)n(Cc3cccc(Br)c3)c(=S)[nH]c2c1,0.905,nt
CCn1c(-c2ccco2)nc2ccccc21,0.49,-0.75
NCCCCC(=O)O,nt,0.1
O=C(CSc1nnc(SCC2CC2)s1)N1CCC(C(F)(F)F)CC1,0.625,1.15
O=C1CCNc2cc3ccccc3cc21,4.52,0.6
Cc1cc(C)n(S(=O)(=O)c2cccs2)n1,0.26,0.45
COc1cc(C=NC2=NN(c3ccccc3)CC2)ccc1O,0.86,-0.4
CC(C)C(NC(=O)COc1ccccc1)C(=O)O (centres undefined),-0.145,-0.35
CCNC(=O)C1Cc2ccccc2CN1S(=O)(=O)c1ccc(F)cc1 (centres undefined),-0.66,-0.75
COc1ccc(S(=O)(=O)N2CCC(C(=O)Nc3c(F)cccc3F)CC2)cc1OC,0.56,-0.85
CCOC(=O)c1c(C)oc2ccc(OCC)cc12,-0.83,-0.6
CCOC(=O)c1cc(C)n(C)c1C,-0.465,-0.45
CCCOc1cccc(C2C3=C(CC(C)(C)CC3=O)Nc3ccccc3N2C(=O)C(F)(F)F)c1 (centres undefined),-0.15,nt
O=C(CCC1CCCC1)N1CCN(C(=O)Cc2ccccc2)CC1,nt,0.15
CC(=O)N1c2ccc(S(=O)(=O)N3CCC(C(=O)NC4CCCC4)CC3)cc2CC1C (centres undefined),-0.12,0.35
CC(C)CCN1C(=O)c2ccc(C34CC5CC(CC(C5)C3)C4)cc2C1=O,0.255,0.05
CCOc1ccc(N2C(=O)Nc3ccccc3C2(O)C(=O)N2CCCC2)cc1 (centres undefined),-0.78,-0.85
Cc1onc(-c2ccccc2)c1C(=O)Nc1ccccc1,-0.21,0.2
Cc1cccc(OCCn2c(CNC(=O)c3ccccc3)nc3ccccc32)c1,0.39,1.9
COc1ccc2c(CC(=O)OCc3cc(=O)n4c5c(sc4n3)CCCC5)coc2c1,nt,-0.15
CCOC(=O)Nc1ccc2c(CNC3CCCCC3)cc(=O)oc2c1,nt,0
O=S(=O)(c1ccc(Br)s1)N1CCN(c2ccc(C(F)(F)F)cc2)CC1,-0.395,nt
Cc1ccc(Nc2cc(N3CCCCC3)c3nonc3c2[N+](=O)[O-])cc1Cl,-0.225,nt
COC(=O)c1cc(N)ccc1N1CCOCC1,nt,2.25
CCOC(=O)c1c(NC(C)=O)sc(C)c1C,3.38,-0.75
Cc1cc(C)n(CCCNC(=O)CSc2nnc(-c3c[nH]c4ccccc34)o2)n1,nt,0.15
CC[n+]1c(/C=C/Nc2ccccc2)sc2ccccc21,-4.91*,1.2
O=C1C2CCN(CC2)C1Cc1ccc2ccccc2c1O (centres undefined),0.88,-0.2

# Part of the list above in order of length of the SMILES, descending:
SMILES,CapD inh,AID504770
CC(=O)N1c2ccc(S(=O)(=O)N3CCC(C(=O)NC4CCCC4)CC3)cc2CC1C (centres undefined),-0.12,0.35
Cc1cc(C)n(CCCNC(=O)CSc2nnc(-c3c[nH]c4ccccc34)o2)n1,nt,0.15
CCOC(=O)c1cc(C)n(C)c1C,-0.465,-0.45

# The list continues:
SMILES,CapD inh,AID504770
O=C(CCCCCCCCC(=O)c1ccccc1)c1ccccc1,0.055,nt
FC(F)(F)c1cccc(-c2nc(-c3ccncc3)no2)c1,-0.23,-0.55
COc1ccc(C(=O)Nc2nc(C(C)(C)C)cs2)cc1,-0.375,-0.7
Nc1oc(-c2ccccc2F)cc1C(=O)c1ccccc1,-3.32,0.5
N#CC(C#N)=C(O)c1c(Cl)cccc1Cl,1.17,0.2
COc1cc2c(cc1OC)C(C)N(C(=O)c1noc3c1COc1ccc(C)cc1-3)CC2 (centres undefined),2.99,-0.05
FC(F)(F)c1cnc(N2CCc3nc(-c4ccccc4)ncc3C2)c(Cl)c1,0.3,nt
O=C(Nc1cccc(Cl)c1)c1noc2c1CCC2,-0.27,1.45
CSc1nnc(-c2ccncc2)n1Cc1ccccc1,0.605,-0.65
CCN(CCc1ccccn1)C(=O)NCC1COc2ccccc2O1 (centres undefined),0.275,nt
O=C(CC12CC3CC(CC(C3)C1)C2)Nc1ccc(C(F)(F)F)cc1,-0.63,nt
CNCc1cccnc1,nt,-0.1
COc1ccccc1N=Cc1c(O)n(C)c(=O)c2ccccc12,-0.805,1.3
Cc1cc(C)nc(NS(=O)(=O)c2ccc(-n3c(Cn4ncc5ccccc5c4=O)n[nH]c3=S)cc2)n1,-0.24,1.15
O=c1cc(C(F)(F)F)[nH]c2c(F)cccc12,12.5,nt
COC(=O)c1c(C(=O)OC)c(-c2ccc(F)cc2)n2c1CS(=O)(=O)C2,-0.33,nt
CCOc1ccc(Nc2cc(C(=O)NCC(OC)OC)c3ccccc3n2)cc1,0.31,-0.05
COC(=O)C1=C(C(=O)OC)SC(=C2C(=S)C(C)(C)N(C(=O)c3ccccc3)c3cc(OC)ccc32)S1,0.285,nt
CC(C)C1=NCCc2cc(O)c(O)cc21,1.41,nt
O=C(OCc1ccc(F)cc1)c1ccc(-n2cnnn2)cc1,nt,1.15

# Structures shown so far containing bromine, in the order listed:
SMILES,CapD inh,AID504770
Cc1nc2ccccc2c(=O)n1-c1ccc(Br)cc1,0.21,-0.8
CC1=C(CC(=O)c2sccc2Br)C(=O)c2ccccc2C1=O,-0.11,nt
CCOC(=O)Nc1ccc(Br)cc1C(NCC(=O)OC)c1ccccc1 (centres undefined),-0.68,-1.05
O=C1NC(=O)C(=Cc2cc(Br)ccc2OCc2ccccc2)C(=O)N1,-0.51,nt
O=C(NCc1ccccc1)c1ccc2c(=O)n(Cc3cccc(Br)c3)c(=S)[nH]c2c1,0.905,nt
O=S(=O)(c1ccc(Br)s1)N1CCN(c2ccc(C(F)(F)F)cc2)CC1,-0.395,nt

# (cont.)
SMILES,CapD inh,AID504770
C#CCn1c(=NC(=O)C2=COCCO2)sc2ccccc21,nt,1.1
N#CC1(C(=O)O)CN(CCc2ccc(Cl)cc2)CN(CCc2ccc(Cl)cc2)C1,0.03,-0.3
N#CCC(=O)Nc1nccs1,nt,-1
O=C(Nc1ccccc1)Oc1cccc(Cl)c1,nt,1.4
Cc1ccc(-c2cc(C(F)(F)F)n3nc(C(=O)Nc4ccn(Cc5ccccc5)n4)cc3n2)cc1C,1.81,-0.1
Cc1ccc(N=C2SC3(CC3)C(=O)N2c2ccc(C)cc2)cc1,0.47,0.35
O=C1C=C(NCc2ccc(Cl)cc2)CC(c2ccco2)C1 (centres undefined),nt,2.65
c1coc(-c2nnc(C3CCCCC3)o2)c1,-0.085,-0.35
Cc1cc(C)cc(NC(=O)C(OC(=O)C2CCC(=O)N2)c2ccccc2)c1 (centres undefined),0.415,-0.05
O=C(O)C1CCC1C(=O)Nc1nc(-c2ccc(Cl)s2)cs1 (centres undefined),0.94,1.65
COCCSc1nnc(NC(=O)C2CCCO2)s1 (centres undefined),nt,1.4
CCOC(=O)c1ccc(NC(=O)C2CC(=O)N(C)C(=Nc3ccc(OC)cc3)S2)cc1 (centres undefined),-0.265,nt
COc1ccc(NC(=O)COc2ccc(C)c(C)c2)c(OC)c1,0.21,0.45
COc1cccc(-c2ccc(C#N)c(OC(=O)c3ccc(Cl)cc3)n2)c1,7.46,nt
O=C(Nc1ccc(F)cc1F)c1ccc(Sc2ccccc2)c([N+](=O)[O-])c1,0.135,nt
N#C/C(=C/C=C/c1ccc(-c2cc(Cl)ccc2Cl)o1)C(N)=S,-1.7,-0.85
COc1cccc(CC2CC(=O)N(c3ccc4c(C)cc(=O)oc4c3)C2=O)c1 (centres undefined),-0.035,-1.05
COCCNC(=O)Cc1ccc(S(C)(=O)=O)cc1,-0.105,nt
CO/N=C(\Cn1ncc(N2CCOCC2)c(Cl)c1=O)c1ccc(Cl)cc1,-0.905,nt
CC(C)(C)c1ccc(O)c(NC(=O)OCCc2ccccc2F)c1,-0.065,nt
COc1ccc(Cn2c(O)c(C=Nc3cc(C)on3)c3ccccc3c2=O)cc1,nt,-0.35
COc1ccc(NC(=O)C(NC(=O)Cc2cccs2)c2ccccc2)cc1 (centres undefined),-1.05,-0.15
CCOc1ccc(Oc2ccc(C(F)(F)F)cc2N)cc1,-0.44,-0.05
Cc1cc(/C=C(\C#N)C(=O)N2CCc3ccccc3C2)c(C)n1C,nt,-1.2
COc1cccc(C2C3=C(CC(c4ccc(Cl)cc4)CC3=O)Nc3ccccc3N2C(C)=O)c1 (centres undefined),3.81,nt
COc1cc(/C=C2\SC(NC(C)=O)=NC2=O)cc2sc(=O)oc12,-0.045,nt

# Screens (PubChem BioAssay)
